fixLJ activator = activators of Burkholderia fixLJ two-component system; B. multivorans fixK-promoter GFP reporter, 18 h; hits give high values; z-score (concentration not given with the values); 29,000 compounds, 0.3% hits; AID 1918990;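 active = replicate mean overnight rise in green fluorescent reporter signal, 3 or more SD over negative controls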;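 note: score is relative to vehicle wells of the plate; 300 nL library stock went into each well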
* hit, by the source's call; & = joins results of further samples.

SMILES | fixLJ activator
CCCN(CCC)C(=O)Cn1c(=O)n(-c2cccc(OC)c2)c(=O)c2c3c(sc21)CCCC3 | -1.7
CCOC(=O)c1c(NC(=O)c2noc3c2CC(C(C)(C)C)CC3)sc2c1CCCC2 (stereo unspecified) | -0.45
COc1ccccc1N1CCN(CC(O)COc2ccc(Cl)c(C)c2)CC1 (stereo unspecified) | -2.3
COc1cc(CN(C(=O)c2oc3ccccc3c2C)C2CCS(=O)(=O)C2)cc(OC)c1OC (stereo unspecified) | -0.96
Cc1ccccc1-c1nc2c3c(-c4ccccc4)c(-c4ccccc4)oc3ncn2n1 | -1.2
Cn1ccnc1C(O)C1CCN(C(=O)C=Cc2nc3ccccc3s2)CC1 (stereo unspecified) | 1.2
CCc1n[nH]c(CN2CCCC(OCc3cccnc3)C2)n1 (stereo unspecified) | -2.9
C=CCC(O)(CC=C)C(C)NC(=O)c1ccc(-n2cnnc2)cc1 (stereo unspecified) | 0.41
COc1ccc(N2CCN(Cc3nnc(-c4cccnc4)o3)C(C)C2=O)cc1 (stereo unspecified) | -1.6
CCn1cc(C(=O)NCc2ccccc2Cl)c(=O)c2cc(S(=O)(=O)N3CCOCC3)ccc21 | -1.4

Four of these compounds, set out differently:
CCn1cc(C(=O)NCc2ccccc2Cl)c(=O)c2cc(S(=O)(=O)N3CCOCC3)ccc21
  fixLJ activator = -1.4

COc1ccccc1N1CCN(CC(O)COc2ccc(Cl)c(C)c2)CC1 (stereo unspecified)
  fixLJ activator = -2.3

Cc1ccccc1-c1nc2c3c(-c4ccccc4)c(-c4ccccc4)oc3ncn2n1
  fixLJ activator = -1.2

CCCN(CCC)C(=O)Cn1c(=O)n(-c2cccc(OC)c2)c(=O)c2c3c(sc21)CCCC3
  fixLJ activator = -1.7

Quoted at random: 3 entries already listed
SMILES | fixLJ activator
COc1ccc(N2CCN(Cc3nnc(-c4cccnc4)o3)C(C)C2=O)cc1 (stereo unspecified) | -1.6
COc1cc(CN(C(=O)c2oc3ccccc3c2C)C2CCS(=O)(=O)C2)cc(OC)c1OC (stereo unspecified) | -0.96
CCOC(=O)c1c(NC(=O)c2noc3c2CC(C(C)(C)C)CC3)sc2c1CCCC2 (stereo unspecified) | -0.45

Other results
SMILES | fixLJ activator
CCOc1ccc(Nc2c(S(=O)(=O)c3ccccc3)cnc3ccc(F)cc23)cc1 | 2
CCOc1ccc(C(=O)Nc2ccc3oc(-c4ccc5ccccc5c4)nc3c2)cc1 | 0.96
CCOc1ccc(C(=O)c2cn(CC(=O)Nc3ccc(F)c(F)c3)c3cc4c(cc3c2=O)OCCO4)cc1 | 0.4
COCCCN(Cc1cccc(OC)c1)C(=O)Cc1nc2ccc(Cl)cc2[nH]1 | 1
Cc1ccc(-c2nc(CN(C)CCn3ccnc3C)no2)cc1 | -1.2
Cc1ccc(C)c(Cn2c3ccccc3c3cnn(CC(=O)NC4CCCCCC4)c(=O)c32)c1 | -0.64
COc1cccc(CN(C(=O)NCCSc2ccccn2)C2CC2)c1 | -0.04
CC(C)NC(=O)c1ccc(NC(=O)c2cc(-c3cccn3C)n[nH]2)cc1 | -0.87
Clc1ccc(N2CCN(Cc3nnc(-c4ccc5c(c4)OCO5)o3)CC2)cc1 | -0.62
CCOc1ccc(CCNC(=O)CSc2nnnn2-c2ccc(C)cc2C)cc1OCC | -3.4

Taken from the results shown, 2 compounds:
SMILES | fixLJ activator
Clc1ccc(N2CCN(Cc3nnc(-c4ccc5c(c4)OCO5)o3)CC2)cc1 | -0.62
CCOc1ccc(CCNC(=O)CSc2nnnn2-c2ccc(C)cc2C)cc1OCC | -3.4

(continued)
SMILES | fixLJ activator
Cc1ccc(CSC2=Nc3ccccc3C3=NC(CCC(=O)N4CCN(c5ccccc5)CC4)C(=O)N23)cc1 (stereo unspecified) | -0.76
CS(=O)(=O)CCC(NC(=O)c1cccc(-n2cccn2)c1)C(=O)O (stereo unspecified) | 0.3
COc1cccc(CN2CCN(CC3CC(c4ccccc4)=NO3)CC2=O)c1 (stereo unspecified) | 1.2
COc1ccc(Cl)cc1-n1nnc(-c2nsc(NC(=O)c3ccccc3Cl)n2)c1C | -0.99
Cc1ccc(Nc2c(-c3ccc(N4CCOCC4)cc3)nc3cccc(C)n23)cc1 | 0.03
O=C(NC1CCCC1)c1c[nH]c2ccc(S(=O)(=O)Nc3cccc(C(F)(F)F)c3)cc2c1=O | -0.45
Cc1ccc2cccc(NC(=O)c3cccc4c(Cl)cccc34)c2n1 | -0.68
CCOC(=O)C1=C(C)N=C2SCCC(=O)N2C1c1ccc(OCc2ccccc2)c(OC)c1 (stereo unspecified) | 0.95
OC(c1cc(C(F)(F)F)nc2c(C(F)(F)F)cccc12)C1CCCCN1 (stereo unspecified) | 0.36
CC(=O)c1nn(-c2ccc(OC(F)(F)F)cc2)nc1Nc1ccc(C)cc1 | -2.3
COC(=O)c1cc2occc2n1Cc1ccc(F)cc1Cl | 0.3
COc1ccccc1CNC(=O)Cc1c(C)c2c(cc(C)c3c(C)coc32)oc1=O | -1.9
CCOc1ccc(-c2noc(CSc3nnc(-c4ccccc4)n3-c3ccccc3)n2)cc1 | -2.2
COc1ccc(C)cc1NC(=O)CCNS(=O)(=O)c1cccc2nonc12 | -0.59
Cc1cc(C(=O)NC(c2cnn(C)c2)C2CC(O)C2)ccc1Cl (stereo unspecified) | -0.36
Cc1ccc(OCCN2CCC(NS(=O)(=O)N(C)C)C(O)C2)cc1C (stereo unspecified) | -1.4
CCC(=O)NCc1cc(-c2nn(C)c(=O)c3ccccc23)ccc1OC | -1.3
Cc1cccc(-c2nc(N3CCN(c4ccc(F)cc4)CC3)c3ccccc3n2)c1 | -0.47
CN(CC(=O)N(C)Cc1nnc(-c2ccccc2)o1)Cc1cccnc1 | 0.56
Cc1nc2c(C(=O)N(Cc3nccn3C)C3CC3)cccc2[nH]1 | -0.97
CCS(=O)(=O)c1oc(-c2ccc(F)cc2)nc1S(=O)(=O)c1ccc(Br)cc1 | -2.9
COc1ccc(CN(C)C(=O)NC(CC(=O)O)CC(C)C)cc1 (stereo unspecified) | -2.6
CCCOc1ccc(C(=O)N2CC(C(=O)O)C3(CCOCC3)C2)cc1Cl (stereo unspecified) | -0.23
Cc1ccc(C(=O)NCc2cc(CC(C)C)no2)cc1NC(=O)C1CCCO1 (stereo unspecified) | -1.1
COc1ccc(OC)c(CNC(=O)C(C)n2c(C)c3cnn(-c4ccccc4)c(=O)c3c2C)c1 (stereo unspecified) | -0.47
Cc1ccc(CO)cc1Nc1ncnc2onc(-c3ccc(F)cc3)c12 | -1.2
O=C(Cn1nc2ccccc2n1)N1CCC2(CC1)OCCc1c2[nH]c2ccccc12 | -2.2
COc1ccc(-n2cc(-c3ccc4c(c3)OCO4)n(CC(=O)Nc3cccc(C)c3)c2=O)cc1 | 0.82
Cc1c(Cl)cccc1NC(=O)CCS(=O)(=O)c1cccc2nsnc12 | -1.6
OC1CCN(c2ccnc(N3CCOC(c4ccc(Cl)cc4)C3)n2)CC1 (stereo unspecified) | -2.6

Next part.
| SMILES | fixLJ activator |
| --- | --- |
| Cn1ccc2ccc(CN3CC4CN(C5CCOCC5)C[C@@]4(C(=O)O)C3)cc21 (stereo partly specified) | 0.51 |
| COc1ccc(CCNc2nc3c(c(=O)n(C)c(=O)n3C)n2Cc2ccccc2Cl)cc1OC | 0.52 |
| COc1cccc(SCC(=O)NC(Cn2ccnc2)C(C)(C)C)c1 (stereo unspecified) | -1.8 |
| O=S(=O)(c1ccc(F)cc1)N1CCC(Oc2ccc(-n3cnnn3)cc2)CC1 | -1.1 |
| CC1(C)CC(=O)c2cc(-c3nc(-c4ccc(Cl)cc4)cs3)c(=O)n(-c3ccc(Cl)cc3)c2C1 | -1.9 |
| Cc1ccccc1CNC(=O)c1ccc2c(c1)N(Cc1ccccc1)CCS2 | 2 |
| COc1ccc(OCC(=O)N2CCN(C(=O)c3ccc(OC)cc3)CC2)cc1 | -2.8 |
| CC1=C(C(=O)Nc2ccccc2C)C(c2ccncc2)n2nc(SCc3ccccc3Cl)nc2N1 (stereo unspecified) | -1.6 |
| Cc1nncn1CCN1CCCN(C(=O)c2ccc(Cl)cn2)CC1 | -0.53 |
| CC(=O)OCC[N+](C)(C)C | 0.14&-1.2 |
| CCOc1ccccc1N1CC(c2nc3ccccc3n2CCCCOc2cc(C)ccc2C)CC1=O (stereo unspecified) | -1.9 |
| Cc1cc(N2CCC3(CC2)CC(=O)NCCO3)c2ccccc2n1 | -0.19 |
| COc1cccc(Cn2nnc3c(=O)[nH]c(C4CCN(C(=O)c5ccccc5Cl)CC4)nc32)c1 | -0.38 |
| COc1ccc(OC)c(-n2c(=O)[nH]c3cc(C(=O)NCCc4ccc(OC)c(OC)c4)ccc3c2=O)c1 | 0.01 |
| Cc1ccc(C(=O)Nc2ccc3[nH]c(=O)c(=O)[nH]c3c2)cc1 | -0.29 |
| Cc1ccc(CN2CCSc3ccc(C(=O)N4CCN(c5ccc(Cl)cc5)CC4)cc32)cc1 | -0.79 |
| COc1cccc(-n2c(=O)c3c(C)c(C)sc3n(Cc3ccccc3C#N)c2=O)c1 | -0.01 |
| CCCCC(CC)CNC(=O)CN(C)S(=O)(=O)c1ccc2c(c1)c(=O)n(C)c(=O)n2C (stereo unspecified) | -0.5 |
| COc1ccc(-n2c(=O)c3ccccc3n(Cc3ccccc3C)c2=O)c(OC)c1 | -2.5 |
| Cc1ccc(NC(=O)CN2C(=O)C(c3ccc(C)cc3)=NC23CCCCCC3)cc1 | -0.79 |
| CCC(=O)N1CCc2cc(S(=O)(=O)NC(C(=O)Nc3ccc(C(C)=O)cc3)C(C)C)ccc21 (stereo unspecified) | 0.01 |
| Cc1oc2ccc(O)c(CN3CCN(C)CC3)c2c1C(=O)Nc1ccc(C(C)C)cc1 | 0.33 |
| Nc1ccc([As](=O)(O)O)cc1 | -2.5 |
| Cc1cccc(C(=O)NCc2nc3ccccc3n2Cc2ccccc2Cl)c1 | -1.6 |
| Cc1cc(/C=C/c2ccc3cc(N(C)C)ccc3[n+]2C)c(C)n1-c1ccccc1 | 4* |
| CS(=O)(=O)NCC(=O)NCc1sc2ccccc2c1Cl | 0.41 |
| Cc1ccc(NC(=O)CC2Nc3cc(C)c(C)cc3NC2=O)c(C)c1 (stereo unspecified) | -1.5 |
| CNC(=O)COc1ccc(NC(=O)c2ccc(-c3nn(C)c(=O)c4ccccc34)cc2)cc1 | -0.93 |
| NC(=O)c1noc(CNC(=O)c2ccc(SCCO)cc2)n1 | 0.52 |
| Cc1nc(C)c(CC(=O)N2CC(O)C(N3CCOCC3)C2)s1 (stereo unspecified) | -1 |
| Cc1ccc2c(c1)c(=O)c1ccccc1n2CCCC(=O)Nc1c(F)cccc1F | -2 |
| CCc1ccccc1N(C)C(=O)c1ccc2c(=O)n3c(nc2c1)CCCCC3 | -0.86 |
| Cc1nn(C)cc1C(=O)N1CCCN(CCCS(=O)(=O)N(C)C)CC1 | -1.6 |
| Cc1ccc(O)c(C(=O)N2CC(C(=O)O)C(c3ccc(F)cc3)C2)c1 (stereo unspecified) | -0.48 |
| Cc1ccc2oc(-c3ccc(NC(=O)CCC(=O)O)cc3)nc2c1 | -0.11 |
| CCCC(=O)N(c1ccc2oc3c(c2c1)CCCC3)S(=O)(=O)c1cc(C)ccc1C | -3.2 |
| CCc1ccccc1NC(=O)Cn1ncc2c(C)n(Cc3ccccc3F)c(C)c2c1=O | -2.4 |
| CCOC(=O)c1cc(-c2ccccc2)nn1Cc1ccccc1 | 0.52 |
| CCc1cccc(C)c1NC(=O)C(CC)n1ncn2c(cc3cc(C)ccc32)c1=O (stereo unspecified) | -3.4 |
| CC(=O)N1CCCC(C(=O)NCCc2nc3c(s2)CCCC3)C1 (stereo unspecified) | 1.3 |
| O=C(Nc1ccc(O)c(-c2nc3ccccc3o2)c1)c1cccs1 | -1.6 |
| COc1ccc(Cl)cc1NC(=O)Cn1nnc(C(=O)NCc2ccc3c(c2)OCO3)c1N | -1.9 |
| COc1ccc(NC(=O)CC2Nc3cccc4cccc(c34)NC2=O)cc1 (stereo unspecified) | -3.2 |
| CN1CCC(C(=O)NC2COCC2Cc2ccnc3ccccc23)CC1 (stereo unspecified) | -0.59 |
| CCc1ccc(NC(=O)Cn2ncn3c(cc4ccccc43)c2=O)cc1 | 1.2 |
| COc1cccc(N2CCN(C(=O)c3ccc(Cn4c(=O)[nH]c5cc(OC)c(OC)cc5c4=O)cc3)CC2)c1 | -0.17 |
| COc1ccc(OC)c(NC(=O)Cn2cc(C(=O)c3ccc(Cl)cc3)c(=O)c3cc(OC)ccc32)c1 | 0.7 |
| O=C(O)Cn1nccc1C1CCCN(C(=O)CSCC2CC2)C1 (stereo unspecified) | -0.82 |
| CS(=O)(=O)NCCC(=O)N1CC2COc3ccccc3C[C@@]2(C(=O)O)C1 (stereo partly specified) | -0.23 |
| Cc1ccc(C)c(Cn2c(=O)n(CCc3ccccc3)c(=O)c3c(C)c(C)sc32)c1 | -1.4 |
| CCc1ccc(-c2cc3c(N4CCN(c5ccccc5)CC4)nccn3n2)cc1 | -1.3 |
| O=C(Cc1ccc(C(F)(F)F)cc1)NC1(C(=O)O)CCOCC1 | -0.64 |
| Cc1cc(C)cc(Nc2nc3ccccc3nc2-n2nc(C)cc2C)c1 | 0.14 |
| COc1ccc(CNC(=O)Cc2c(C)c3ccc(O)cc3oc2=O)cc1 | -3.2 |
| CCC(CC)C(=O)N1CCc2cc(OC)c(OC)cc2C1COc1ccc2c(C)cc(=O)oc2c1 (stereo unspecified) | -0.6 |
| CN(C(=O)CN(CCO)CC(=O)N(C)C(C)(C)Cc1ccccc1)C(C)(C)Cc1ccccc1 | -1.2 |
| Cc1ccc(NCCCNc2nccc(N3CCCC(O)C3)n2)nc1 (stereo unspecified) | -1.5 |
| CN(CC(=O)NCc1cn[nH]c1-c1ccccc1)C1CCS(=O)(=O)C1 (stereo unspecified) | -0.84 |
| O=C1CC(c2ccccc2)Cc2[nH]c(=O)c(-c3nc(-c4ccc(Cl)cc4)cs3)cc21 (stereo unspecified) | 0.45 |
| Cc1ccccc1Cn1cc(S(=O)(=O)c2ccc(Cl)cc2)c(=O)c2cc3c(cc21)OCO3 | -0.55 |
| COc1ccc(-n2nc(C(=O)Nc3cccc(C(F)(F)F)c3)c3c4ccccc4n(C)c3c2=O)cc1 | -0.56 |
| CC(=O)c1ccc(NC(=O)c2cc(S(=O)(=O)N3CCOCC3)ccc2C)cc1 | -3.5 |
| CC(C)c1noc(CNC(=O)N(Cc2cocn2)Cc2cocn2)n1 | 0.82 |

Screening data: PubChem BioAssay, ICCB-Longwood Screening Facility, Harvard Medical School

These rows are one share of the data, so the mix of outcomes need not match the whole.
